HIV TAR-Tat: TAR RNA-Tat peptide displacers, HIV-1, primary screen, biochemical, FRET, FAM/TAMRA-labeled Tat | HIV-1 TAR RNA, Tat peptide displacement FRET; hits give high values | z-score (no concentration beside the values) | hit rate 0.6% among 100,000 | AID 1259389, 2018;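 note: score is relative to mean and SD of negative controls; some compounds called inactive have numbers as strong as hits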
CDC25B CDK2 inh: primary biochemical HTRF screen for blockers of M-phase inducer phosphatase 2 binding to CDK2/cyclin A; P30305+P24941; z-score (no concentration beside the values); HTRF CDC25B-CDK2/CyclinA binding, anti-His/anti-Flag; hits give high values; hit rate 0.72% among 94,000;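 note: score is relative to mean and SD of negative controls; strong numbers were not always called active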
* hit, by the source's call; nt = no result given.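 Rule for the calls: active = z-score from 3 up in half or more of its runs; inactive = the rest.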 Outcome played no part in choosing rows; overall some 0.87% were active at least once.

nr	compound	HIV TAR-Tat	CDC25B CDK2 inh
1	COc1ccc(-c2nc3scc(CCNS(=O)(=O)c4ccc(OC)cc4)n3n2)cc1	1.4	nt
2	Cc1ccc(-n2nc3cc(N)c(Cl)cc3n2)cc1	2.8	-2.7
3	COc1cc(-c2cc(=O)c3ccccc3o2)ccc1O	nt	-4.8
4	CC(C)(CC(=O)OCC(=O)Nc1ccccc1F)CC1=NS(=O)(=O)c2ccccc2N1	0.8	nt
5	Cc1ncc(-c2ccc(S(=O)(=O)NCc3ccc(F)cc3)cc2)o1	0.9	nt
6	CCCCSc1cc(C)nc2ncnn12	1.5	0.73
7	Nc1ncnc2sc3c(c12)CCCC3	nt	-1.2
8	CCc1ccc(-c2cc(C)no2)cc1S(=O)(=O)NCCN1CCC(C)CC1	-0.11	nt
9	Cc1ccc(C)c(NC(=O)c2oc3c(c2C)-c2nc(C)sc2CC3)c1	1.9	nt
10	Cc1cn2c(=O)cc(COC(=O)c3ccccc3Cl)nc2s1	0.67	nt
11	O=C(Nc1cccc(F)c1)c1cc2ccccc2c(=O)s1	0.32	0.17
12	COc1ccc(-n2cnc3sc(C)c(C)c3c2=O)cc1	3	-0.28
13	COc1ccc(CNc2nc3ccccc3c3nc(-c4ccncc4)nn23)cc1	-0.72	-0.58
14	Cc1ccc(C2CC(c3cccc(C)c3)n3ncnc3N2)cc1 (configuration not stated)	-0.32	0.95
15	Cc1ccc2nc(NCc3ccc(C(=O)O)cc3)c3nnnn3c2c1	0.83	-2.3
16	O=C1COc2cc(S(=O)(=O)Nc3cc(F)ccc3F)c(Cl)cc2N1	-0.4	nt
17	COc1ccc(-c2cccc(NS(=O)(=O)c3ccc(F)cc3F)c2)nn1	0.82	nt
18	O=C1c2nccnc2C(=O)N1Cc1ccco1	2	-1.3
19	c1ccc2c(c1)ncc1cccn12	nt	-0.46
20	Cc1ccc2oc(=O)n(CCc3noc(-c4ccc(C(F)(F)F)nc4C)n3)c2c1	nt	-0.92
21	CCOc1ccc(S(=O)(=O)Nc2ccc3c(c2)N(S(=O)(=O)c2cccs2)CCC3)cc1	-0.32	nt
22	Cn1ncc2c(N3CCOCC3)nc(NCc3cccnc3)nc21	1.4	nt
23	Cc1ccc(CNC(=O)CCC(=O)N2CCCn3nc(-c4cccn4C)cc32)o1	-0.38	nt
24	COc1ccc2c(c1)c(=O)c(C(=O)c1ccccc1)cn2Cc1ccccc1OC	-1.5	-1.4
25	CCOC(=O)N1CCC(NC(=O)Cn2ncn3c(cc4sc(CC)cc43)c2=O)CC1	1.2	-0.6
26	CNC(=O)C1CCC(Cn2c(=O)c3sccc3n(Cc3cc(=O)n4ccccc4n3)c2=O)CC1 (configuration not stated)	0.83	nt
27	Cc1n[nH]c(C)c1Nc1nc(-c2ccccc2)cs1	0.11	1.1
28	Clc1ccc2c(c1)nc1n2CCN(CCc2ccccc2)C1	-2	-1.2
29	CCCCCCCCCO[C@@H]1O[C@H](CO)[C@@H](O)[C@H](O)[C@H]1O	nt	-1
30	O=C1NC(c2ccc([N+](=O)[O-])o2)Nc2sc3c(c21)CCCC3 (configuration not stated)	-3.4	-1.1
31	CCN1CCN(CCCNC(=O)Cn2c3ccccc3c3nc(=O)cc(C)n32)CC1	-0.13	0.22
32	CCOC(=O)c1noc2ncnc(N3CCCC(C)C3)c12 (configuration not stated)	-0.23	nt
33	O=C(NCC1COc2ccccc2O1)c1ccc2c(Cl)c3c(nc2c1)CCC3 (configuration not stated)	nt	-1.6
34	CCCCOc1ccc(C2C(C#N)=C(N)OC3=C2C(=O)CCC3)cc1OC (configuration not stated)	nt	0.19
35	Cc1csc2nc(COC(=O)c3ccccc3Cl)cc(=O)n12	4.1	nt
36	CC1CCCCN1CCN1C(=O)c2ccc(-c3ccco3)n2CC1(C)C(=O)NC1CCCC1 (configuration not stated)	0.32	nt
37	CCOC(=O)c1sc(/N=C(/C)O)c(C#N)c1C	1.4	-1.1
38	CC(C)(C)c1ccc(OCc2cc(=O)n3c(-c4ccccc4)csc3n2)cc1	-1.4	-1.6
39	COC(=O)c1cc(S(=O)(=O)N2CCCC2)oc1C	nt	-0.12
40	Cc1c(NC(=O)c2cc(=O)c3cc(Cl)ccc3o2)c(=O)n(-c2ccccc2)n1C	0.42	0.85
41	COc1ccc2nc(NS(=O)(=O)c3ccccc3)c(Nc3ccc4c(c3)OCCO4)nc2c1	-0.51	-1.8
42	COc1ccc(NC(=O)C(C)Sc2nnc(Cc3c(C)nc4c(C)cccn4c3=O)n2C)cc1 (configuration not stated)	-0.94	7.2*
43	CC(=O)Nc1ccc(-n2sc3c(c2=S)-c2cccc(C)c2NC3(C)C)cc1	1.2	-8.5
44	Cc1[nH]nc(-n2cnnc2)c1NC(=O)c1ccc(Br)cc1	-0.88	-1.8
45	Cc1ccccc1CNCCCSc1nnnn1C	0.59	-0.99
46	Cn1nc(C(F)(F)F)c(-c2ccc(Br)cc2)c1NC(=O)C1CCC1C(=O)O (configuration not stated)	nt	1.4
47	N#Cc1sccc1Br	nt	-2.6
48	CC1CCCCN1C(=O)CCS(=O)(=O)c1cc(Br)cc2c1N(C(=O)C1CC1)CC2 (configuration not stated)	nt	-1.6
49	CCS(=O)(=O)n1nc(-c2ccc(OC)cc2)nc1SC	0.37	0.03
50	Cc1c(C(=O)Nc2ccc(-n3cnnn3)cc2)oc2ccc(F)cc12	2.1	0.9
51	Cc1cc(C)c(C#N)c(SCc2nc3ccccc3[nH]2)n1	nt	0.01
52	COc1cc(Cl)cc2c1OC=CC(C(=O)NC1CCCC1)=C2	-0.2	0.06
53	CCn1nc(C)c(CNC(=O)Nc2cc(Cl)ccc2OC)c1C	0.58	nt
54	Cc1cc(S(=O)(=O)[C@H]2CS(=O)(=O)C[C@@H]2NCCc2ccc(S(N)(=O)=O)cc2)ccc1F	-0.06	-0.99
55	CC(=O)OCC1=C(C(=O)O)N2C(=O)C(NC(=O)c3ccc(C)c(Br)c3)C2SC1 (configuration not stated)	0.9	-1.3
56	CCn1c(SCc2ccccc2F)nnc1-c1ccc2c(c1)OCCCO2	1.8	nt
57	C=CCSc1nc(N)c2c3c(sc2n1)CCCC3	0.3	0.12
58	O=C(C1COc2ccccc2O1)N1CCCC1 (configuration not stated)	0.27	-1.4
59	CCCCN1C(=O)N(c2ccc(Cl)cc2)S(=O)(=O)c2ccccc21	0.5	nt
60	Fc1cc(Cl)ccc1CSc1nc2ncccc2[nH]1	-0.87	0.52

Reformatted: entries from further up
Value order – HIV TAR-Tat, CDC25B CDK2 inh
38: CC(C)(C)c1ccc(OCc2cc(=O)n3c(-c4ccccc4)csc3n2)cc1
    -1.4, -1.6
39: COC(=O)c1cc(S(=O)(=O)N2CCCC2)oc1C
    nt, -0.12
40: Cc1c(NC(=O)c2cc(=O)c3cc(Cl)ccc3o2)c(=O)n(-c2ccccc2)n1C
    0.42, 0.85
41: COc1ccc2nc(NS(=O)(=O)c3ccccc3)c(Nc3ccc4c(c3)OCCO4)nc2c1
    -0.51, -1.8
42: COc1ccc(NC(=O)C(C)Sc2nnc(Cc3c(C)nc4c(C)cccn4c3=O)n2C)cc1 (configuration not stated)
    -0.94, 7.2*
43: CC(=O)Nc1ccc(-n2sc3c(c2=S)-c2cccc(C)c2NC3(C)C)cc1
    1.2, -8.5
44: Cc1[nH]nc(-n2cnnc2)c1NC(=O)c1ccc(Br)cc1
    -0.88, -1.8
45: Cc1ccccc1CNCCCSc1nnnn1C
    0.59, -0.99
46: Cn1nc(C(F)(F)F)c(-c2ccc(Br)cc2)c1NC(=O)C1CCC1C(=O)O (configuration not stated)
    nt, 1.4
47: N#Cc1sccc1Br
    nt, -2.6
48: CC1CCCCN1C(=O)CCS(=O)(=O)c1cc(Br)cc2c1N(C(=O)C1CC1)CC2 (configuration not stated)
    nt, -1.6
49: CCS(=O)(=O)n1nc(-c2ccc(OC)cc2)nc1SC
    0.37, 0.03
50: Cc1c(C(=O)Nc2ccc(-n3cnnn3)cc2)oc2ccc(F)cc12
    2.1, 0.9
51: Cc1cc(C)c(C#N)c(SCc2nc3ccccc3[nH]2)n1
    nt, 0.01
52: COc1cc(Cl)cc2c1OC=CC(C(=O)NC1CCCC1)=C2
    -0.2, 0.06
53: CCn1nc(C)c(CNC(=O)Nc2cc(Cl)ccc2OC)c1C
    0.58, nt
54: Cc1cc(S(=O)(=O)[C@H]2CS(=O)(=O)C[C@@H]2NCCc2ccc(S(N)(=O)=O)cc2)ccc1F
    -0.06, -0.99
55: CC(=O)OCC1=C(C(=O)O)N2C(=O)C(NC(=O)c3ccc(C)c(Br)c3)C2SC1 (configuration not stated)
    0.9, -1.3
56: CCn1c(SCc2ccccc2F)nnc1-c1ccc2c(c1)OCCCO2
    1.8, nt
57: C=CCSc1nc(N)c2c3c(sc2n1)CCCC3
    0.3, 0.12
58: O=C(C1COc2ccccc2O1)N1CCCC1 (configuration not stated)
    0.27, -1.4
59: CCCCN1C(=O)N(c2ccc(Cl)cc2)S(=O)(=O)c2ccccc21
    0.5, nt
60: Fc1cc(Cl)ccc1CSc1nc2ncccc2[nH]1
    -0.87, 0.52

The list goes on:
nr	compound	HIV TAR-Tat	CDC25B CDK2 inh
61	CCN(CC)CCNc1ncnc2c1cnn2-c1cccc(Cl)c1	1.1	nt
62	COc1cccc(-c2noc(NC3CC3)n2)c1OC	0.31	nt
63	Cc1ccc(OCCCCc2c(C)n[nH]c2C)cc1C	-0.4	-1
64	CCC(C)NC(=O)c1cc2c(s1)-c1ccccc1S(=O)(=O)C2 (configuration not stated)	0.17	-2.3
65	COc1cc(C2SCCS2)cc([N+](=O)[O-])c1OC(=O)Cc1ccccc1	nt	-2
66	CC(C)NC(=O)C1CCN(C(=O)N(C)C)CC1	1.9	nt
67	COc1ccc(-c2csc(Nc3ccc(N(C)C)cc3)n2)cc1OC	0.27	-3.8
68	CCCCCCNC(=O)NCCCCCC	nt	-1.3
69	O=C(CCc1nnc2ccc(NCc3ccc4c(c3)OCO4)nn12)N1CCN(Cc2ccccc2)CC1	1.7	nt
70	Cc1cc(-c2ccc(C(C)C)c(S(=O)(=O)Nc3ccccc3C)c2)on1	-0.15	nt

Full records, looked up by structure:
CCCCCCNC(=O)NCCCCCC is entered as HIV TAR-Tat = nt; CDC25B CDK2 inh = -1.3
CCN(CC)CCNc1ncnc2c1cnn2-c1cccc(Cl)c1 is entered as HIV TAR-Tat = 1.1; CDC25B CDK2 inh = nt

Compound activity as filed in PubChem BioAssay.
